# GCN5L2 inh = blocks human GCN5L2 histone acetyltransferase | hit rate 0.21% among 390,000 | Potency, µM (series often up to 58.9 µM), for inactives: at the highest dose activity change, negative = inhibition, actives largely listed as inhibitors | AID 504327 | GCN5L2 HAT assay, ThioGlo1 CoA-SH fluorescence
# Target sequence (Q92830 whole entry, looked up): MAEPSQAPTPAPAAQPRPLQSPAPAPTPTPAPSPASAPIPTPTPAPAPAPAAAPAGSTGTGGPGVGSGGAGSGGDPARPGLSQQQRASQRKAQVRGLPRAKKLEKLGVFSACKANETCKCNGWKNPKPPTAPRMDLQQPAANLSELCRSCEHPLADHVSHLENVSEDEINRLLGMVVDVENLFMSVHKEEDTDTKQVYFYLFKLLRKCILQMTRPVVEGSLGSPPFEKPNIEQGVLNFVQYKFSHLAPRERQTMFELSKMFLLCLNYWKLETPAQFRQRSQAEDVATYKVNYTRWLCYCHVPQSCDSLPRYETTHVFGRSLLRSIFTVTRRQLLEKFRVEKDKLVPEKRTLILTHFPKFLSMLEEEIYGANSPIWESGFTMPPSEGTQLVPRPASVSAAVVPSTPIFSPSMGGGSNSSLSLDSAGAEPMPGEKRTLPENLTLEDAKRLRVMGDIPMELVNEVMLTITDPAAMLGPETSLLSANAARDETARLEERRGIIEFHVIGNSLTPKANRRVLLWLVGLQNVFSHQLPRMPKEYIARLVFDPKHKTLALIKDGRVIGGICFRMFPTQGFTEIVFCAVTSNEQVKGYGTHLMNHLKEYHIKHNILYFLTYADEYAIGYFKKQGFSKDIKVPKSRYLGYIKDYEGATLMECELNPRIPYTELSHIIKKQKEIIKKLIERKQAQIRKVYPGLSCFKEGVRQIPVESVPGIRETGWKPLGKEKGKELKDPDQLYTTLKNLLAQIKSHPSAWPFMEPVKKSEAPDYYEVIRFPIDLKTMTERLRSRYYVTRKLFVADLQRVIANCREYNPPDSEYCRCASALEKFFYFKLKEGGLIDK
#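 Enzyme at 20nM final was mixed with library compounds for 15 min at room temperature. Peptide H3(1-25) at 75uM, acetyl-CoA at 70uM and ThioGlo1 at 50uM were then added. Plates were read immediately and after 20 min (Ex340nm/Em540nm).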
# N370S GC = inhibitors or activators of N370S glucocerebrosidase for Gaucher disease. hit rate 0.092% among 330,000. P04062. N370S GC spleen homogenate, 4MU-glucoside fluorescence. Potency, µM (doses to about 59.4 µM), for the others: top-dose activity change, negative = inhibition, actives largely listed as inhibitors;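 note: 0% = full enzyme activity and -100% = no enzyme basal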
# * marks the source's active call; other numbers are inactive results; ? = inconclusive; nt = not tested or not shown; & = joins results of further samples; [ ] = remark or other dose. Calls come from the whole dose curve; as a rule, active = well fitted curve in the direction sought with a large enough effect; inconclusive = small, poorly fitted or top-dose-only effect, or another doubt; inactive = no such curve, though single readings can be large; an effect the other way counts as inactive or inconclusive. Unless noted, % is set by controls: 0 for no effect and ±100 for the full control effect; potency is the fitted concentration of half-maximal effect.
SMILES,GCN5L2 inh,N370S GC
COc1ccccc1Nc1nn2c(=O)c3ccc(C(=O)N4CCC(C)CC4)cc3nc2s1,-11%&0%,-14%
CC(C)(C)c1ccc(OCc2ccc(C(=O)N3CCOCC3)o2)cc1,1%,?
O=c1c2c(-c3cccs3)csc2ncn1-c1ccc(Br)cc1,-17%,-5%[12.8 µM]
O=C(N/N=C\c1ccc([N+](=O)[O-])s1)c1cncc(Br)c1,?,-4%
Nc1nnc(SCC(=O)Nc2cccc(F)c2)s1,12%,nt
CC(=O)Nc1cccc(NC(=O)COc2nncc3ccccc23)c1,-2%,-3%
CC[C@]12c3[nH]c4cc(CCC(=O)N(C)C)ccc4c3CCN1C(=O)[C@@H](CC(=O)NC(C)(C)C)C[C@@H]2C(=O)N1CCN(C(=O)C2CC2)CC1,-2%,nt
CN(C(=O)CCN1C(=O)S/C(=C\c2ccccc2)C1=O)C1CCS(=O)(=O)C1 (stereo not drawn),-9%,-8%
COc1cc(OC)cc(C(=O)N[C@H](C(=O)NCCc2ccc(S(N)(=O)=O)cc2)C(C)C)c1,-3%,1%
O=C(Nc1ccncc1)c1ccc(Cl)c(S(=O)(=O)N2CCCC2)c1,-21%,-9%

# Laid out differently: 5 of the compounds above.
# Screens in order: GCN5L2 inh	N370S GC
> Nc1nnc(SCC(=O)Nc2cccc(F)c2)s1
→ 12%	nt
> O=C(N/N=C\c1ccc([N+](=O)[O-])s1)c1cncc(Br)c1
→ ?	-4%
> CN(C(=O)CCN1C(=O)S/C(=C\c2ccccc2)C1=O)C1CCS(=O)(=O)C1 (stereo not drawn)
→ -9%	-8%
> CC[C@]12c3[nH]c4cc(CCC(=O)N(C)C)ccc4c3CCN1C(=O)[C@@H](CC(=O)NC(C)(C)C)C[C@@H]2C(=O)N1CCN(C(=O)C2CC2)CC1
→ -2%	nt
> COc1cc(OC)cc(C(=O)N[C@H](C(=O)NCCc2ccc(S(N)(=O)=O)cc2)C(C)C)c1
→ -3%	1%

# Going on with the list.
SMILES,GCN5L2 inh,N370S GC
COc1ccccc1NS(=O)(=O)c1cc2c(cc1Cl)NC(=O)CO2,-15%,nt
COC(=O)c1ccccc1NC(=O)C1CCN(C(=O)c2cc(OC)c(OC)c(OC)c2)CC1,-2%,2%
COc1ccc(C2CC(=O)Nc3c2c(C)nn3-c2nncc(-c3ccc(C)cc3)n2)c(OC)c1OC (stereo not drawn),-6%,nt
O=C(O)CC1(CC(=O)Nc2ccc(F)cc2F)CCCCC1,0%,12%
CCCN1C(=O)/C(=C2\SC(=S)N(c3c(C)n(C)n(-c4ccccc4)c3=O)C2=O)c2ccccc21,-17%,13%
CCCN(C(=O)COC(=O)C12CCC(=O)N1c1ccccc1S2)c1c(N)n(Cc2ccccc2)c(=O)[nH]c1=O (stereo not drawn),-11%,-3%
Cc1ccc(-n2c(=O)cc(N3CCc4ccccc4C3)[nH]c2=O)cc1,-7%,3%
Cc1ccccc1C(=O)NNC(=O)c1ccc2nc[nH]c2c1,-4%,-6%
O=C(Nc1cccc(-c2cn3ccccc3n2)c1)c1cccs1,2%,-11%
Cc1ccc(Nc2n[nH]c(C)c2[N+](=O)[O-])cc1C,0%,6%
COc1ccc(N2CCN(C(=O)[C@H](C)NC(=O)c3ccccc3Cl)CC2)cc1,0%,3%
CC(=O)C1=C(O)C(=O)N(CCC(=O)O)C1c1ccccc1Cl (stereo not drawn),-7%,nt
COc1ccc(NC(=S)NN2CCOCC2)cc1OC,-8%,6%
CC(C)N=C(Nc1ccccc1)c1cccnc1,-2%,-3%
COc1ccc(CNS(=O)(=O)c2cc(-c3cc(C)no3)ccc2OC)cc1OC,-7%,1%
CCN(CC)C(=O)C1CCN(S(=O)(=O)c2ccc(-n3cnnn3)cc2)CC1,-3%,1%
O=C(Cn1cc(C(F)(F)F)ccc1=O)N1CCCc2ccccc21,-4%,nt
CCN(CC)S(=O)(=O)c1ccc(NN=C2CCN(C)CC2)c([N+](=O)[O-])c1,-2%,-7%
COCCn1c(SCC(=O)N2CCOCC2)nnc1-c1ccco1,0%,-6%
Nc1ccc(N2CCN(c3cccc(Cl)c3)CC2)cc1,4%,10%
Cc1nc2nc(C)c(CCC(=O)NC(C)c3ccc4c(c3)OCCO4)c(C)n2n1 (stereo not drawn),?,8%
COc1cccc(C(=O)N/N=c2\sc3ccccc3n2C)c1,-5%,2%
Cc1cc(C)cc(C(=O)NCC(=O)OC(C)C(=O)N(C)c2ccccc2)c1 (stereo not drawn),-10%,-2%
CCC(C)NC(=O)c1c(C)oc2ncn(CC(C)C)c(=O)c12 (stereo not drawn),5%,nt
CCC(=O)c1c[nH]c(C(=O)N2CCOCC2)c1,?,-1%
Cc1nc(CNC(=O)c2ccccc2OC2CCN(S(C)(=O)=O)CC2)cs1,-25%,-19%
CC(C)(C)c1ccc2c(c1)N(CC(=O)NCCCN1CCN(c3ccccc3F)CC1)C(=O)CO2,9%,nt
COCCSc1nnc(NC(=O)c2ccc(OC)c([N+](=O)[O-])c2)s1,-7%,-5%
CCOc1ccc(NC(=O)c2ccccc2C(=O)c2ccccc2)cc1OCC,-2%,2%
O=C(CCC(=O)N1CCN(Cc2ccc(F)cc2)CC1)Nc1nnc(C2CCCCC2)s1,-22%,2%
Cc1cccc(CN(CC(=O)N/N=C/c2cccs2)S(=O)(=O)c2ccc(Cl)cc2)c1,-10%,9%[12.8 µM]
CCOC(=O)C1=CN(Cc2cccc(F)c2)S(=O)(=O)N(CC)C1c1cccc(OC)c1 (stereo not drawn),-10%,nt
COc1cccc(/C(O)=C2/C(=O)C(=O)N(c3ccccn3)C2c2ccc(OC)c(OC)c2)c1 (stereo not drawn),-18%,-14%
Cc1oc(C(N)=O)nc1-c1ccccc1,-5%,-6%
COc1ccc(S(=O)(=O)Nc2ccccc2C(F)(F)F)cc1,-12%,5%
CCOc1ccc(S(=O)(=O)N(CC(=O)Nc2cccnc2)c2ccccc2)cc1,2%,nt
CS(=O)(=O)c1ccc(SCC(=O)NC2CCS(=O)(=O)C2)c([N+](=O)[O-])c1 (stereo not drawn),-15%,2%
CC(=O)NC(CCS(C)(=O)=O)C(=O)Nc1ccc2c(c1)OCO2 (stereo not drawn),3%,-3%
COc1cccc(-c2nc(SC(C(C)=O)C(=O)N(C)C)c3c(=O)n(C)c(=O)n(C)c3n2)c1 (stereo not drawn),-22%,nt
C=CCNc1nc(NCCN2CCOCC2)nc(OC)n1,0%,2%
Cn1c(=O)[nH]c(=O)c2c1nc(CN1CCN(c3ccc(F)cc3)CC1)n2CCCc1ccccc1,-3%,3%
Cc1ccc(-n2nnnc2SCCNS(=O)(=O)c2ccccc2)cc1C,-1%,3%
CC1CN(C(=O)c2ccc(CNS(=O)(=O)c3cccc(C(F)(F)F)c3)cc2)CC(C)O1 (stereo not drawn),-1%,1%
CC(=O)N1CCc2cc(S(=O)(=O)NC(C)c3ccccc3)ccc21 (stereo not drawn),-4%,11%
CCCCN1CC(O)C(O)C(O)C1CO (stereo not drawn),-5%,nt
COc1ccc(NC(=O)C2CCCN(S(=O)(=O)c3cccc4cccnc34)C2)cc1OC (stereo not drawn),-6%,0%
Cn1c(=O)c2c(-c3ccccc3Br)n(CCc3ccccc3)cc2n(C)c1=O,-6%,nt
COc1cccc(NC(=O)Cn2c(=O)n(Cc3ccccc3)c(=O)c3ccccc32)c1,-4%,nt
COc1cc(OC)cc(C(=O)Nc2cccc(-c3cn4cccnc4n3)c2)c1,-3%,nt
COc1ccccc1N1CCN(S(=O)(=O)c2ccc3[nH]c4c(c3c2)CCCC4)CC1,-14%,nt

# Later entries:
SMILES,GCN5L2 inh,N370S GC
COCCCNS(=O)(=O)c1ccc2c3c(cccc13)C(=O)S2,2%,0%
Cc1cc(NS(=O)(=O)c2ccc(NS(=O)(=O)c3ccc(CC(C)C)cc3)cc2)nc(C)n1,-21%,1%
COc1ccccc1/C=C(/C(=O)OCC(=O)Nc1ccccc1C)c1ccccc1,-12%,2%
COc1ccc(-n2nc(C(=O)N3CCCCC3)c3ccccc3c2=O)cc1,3%,-4%
CCOc1cc(C(=O)NC(C)C2CCCO2)cc(OCC)c1OCC (stereo not drawn),1%,4%
COCCCNC(=S)N1CCCN(c2nc3c(C)c(C)ccc3cc2C#N)CC1,-3%,1%
CCOC(=O)CNS(=O)(=O)CCN1C(=O)c2ccccc2C1=O,-5%,-2%
Cc1cc(/C=C(\C#N)C(=O)NCc2ccco2)c(C)n1C1CCCC1,-8%,13%
COC(=O)CCCNC(=O)c1ccc(S(=O)(=O)NCc2ccco2)cc1,-2%,-5%
CCN(C(=O)c1cnc(NC(C)C)cc1C(F)(F)F)c1ccc(Cl)cc1,-4%,-15%
CCOC(=O)Cn1cncc1-c1ccc([N+](=O)[O-])cc1,-2%,11%
N#Cc1c(NC(=O)C2CC(Cl)=CCC2C(=O)O)sc2c1CCCC2 (stereo not drawn),10%,2%
COc1cc(-c2ccccc2)nc2ccccc12,-3%,9%
COc1ccccc1N1CC(C(=O)Nc2nnc(SCc3cccnc3)s2)CC1=O (stereo not drawn),-29%,-3%
COc1cccc(NC(=O)c2oc3ccccc3c2NC(=O)C2CC2)c1,-20%,6%
Cc1ccc2c(c1)NC(=O)C(CC(=O)NCCCN1CCCCC1)O2 (stereo not drawn),-16%,-1%
COc1ccc(Cl)c(NC(=O)C/C(C)=N/NC(=O)CCc2ccccc2)c1,-2%,0%
Cc1ccc(Cl)c2c1NC(=O)C2(O)CC(=O)c1ccccc1O (stereo not drawn),-7%,-3%
Fc1ccc(Cn2nnc3ccccc32)cc1,-19%,-7%
OC[C@H]1O[C@@H](n2cnc3c(NCCc4ccccc4)ncnc32)[C@H](O)[C@H]1O,nt,3%
COc1ccc(CCNC(=O)c2cc3c(=O)n4ccccc4nc3n(CC3CCCO3)c2=N)cc1OC (stereo not drawn),-6%,12%
O=C1CN(C(=O)CN2CCCC2)C(c2ccccc2)c2cc(Br)ccc2N1 (stereo not drawn),-20%,0%
O=C(NCc1ccc2c(c1)OCO2)C12CN(Cc3ccccc3)CC1C(c1cccc([N+](=O)[O-])c1)=NO2 (stereo not drawn),-6%,-1%
O=C(O)CSc1nnc(Cn2c(=O)sc3ccccc32)n1-c1cccc(Cl)c1,-6%,-8%
CCOC(=O)C1(Cc2ccc(OC)cc2)CCN(C(=O)CC2CCC(=O)N2)CC1 (stereo not drawn),-18%,9%
Cc1nc2ncnn2c(C)c1C/C=C/c1ccccc1,-8%,5%
CC1CCN(CC(O)Cn2c3ccccc3c3ccccc32)CC1 (stereo not drawn),-12%,-11%
CN1c2ccc(Cl)cc2C(=O)NC1C1CC=CCC1 (stereo not drawn),-1%,?
COCCN(CCOC)Cc1cc(=O)oc2cc3c(cc12)CCC3,-9%,1%
CCOc1cc(C)c(S(=O)(=O)NCCCn2ccnc2)cc1C,-13%,2%
CC1=Nc2cc(C(=O)NCCCN3CCN(C)CC3)ccc2Sc2ccc(C)cc21,1%,-10%
COc1ccc(Cl)cc1C(=O)NNC(=O)COC(=O)c1ccc(Br)o1,-2%,nt
Cn1c(=O)c2c(ncn2CC(N)=O)n(C)c1=O,-4%,-10%
COc1ccc(OCCSc2nc(-c3ccccc3)cc(=O)[nH]2)cc1,-9%,6%
CCc1ccc(CNC(=O)c2cnc3c(C)cccn3c2=O)cc1,-3%,nt
CCOC(=O)c1sc2ncnc(Nc3cccc(C(=O)O)c3)c2c1C,-13%,-5%
CC(OC(=O)c1cccc(N(C)C)c1)C(=O)N1CCc2ccccc2C1 (stereo not drawn),-7%,nt
O=C(c1ccco1)N1CCN(C(=O)N2c3ccccc3Sc3ccccc32)CC1,-3%,?
COc1ccc(/C=C2\Oc3cc(OCC(=O)N4CCC[C@H]4C(=O)O)ccc3C2=O)c(OC)c1,-29%,-19%
COC(=O)c1ccc(C2Nc3ccccc3NC3=C2C(=O)CC(C)(C)C3)cc1 (stereo not drawn),-1%,-6%
CN1CCC(OC(=O)c2cc3cc(Cl)cc(Cl)c3oc2=O)CC1,-17%,-14%
CSCCC(NC(=O)c1ccco1)C(=O)Nc1ccc(C)cn1 (stereo not drawn),-4%,4%
COc1cc(C2NC(=O)NC(C)=C2C(=O)OC2CCCC(C)C2)cc(Br)c1O (stereo not drawn),-2%,0%
COCCn1cnc2c1c(=O)n(CC#N)c(=O)n2Cc1ccccc1,-2%,-13%
O=C(NNC(=O)c1ccncc1)c1ccccc1,-4%,3%
CC(C)CN(C(=O)CN1CCN(c2ccc([N+](=O)[O-])cc2)CC1)c1c(N)n(CC(C)C)c(=O)[nH]c1=O,-4%,-2%
CCOC(=O)c1ccc(NC(=O)C2CCCN(S(=O)(=O)c3cnc[nH]3)C2)cc1 (stereo not drawn),-1%,-5%
Cc1ccsc1C1C=C(c2cccc(Br)c2)Nc2ncnn21 (stereo not drawn),-13%,-28%

# A different layout for some results above.
smiles	GCN5L2 inh	N370S GC
COCCn1cnc2c1c(=O)n(CC#N)c(=O)n2Cc1ccccc1	-2%	-13%
O=C(NNC(=O)c1ccncc1)c1ccccc1	-4%	3%
COc1cc(C2NC(=O)NC(C)=C2C(=O)OC2CCCC(C)C2)cc(Br)c1O (stereo not drawn)	-2%	0%
CN1CCC(OC(=O)c2cc3cc(Cl)cc(Cl)c3oc2=O)CC1	-17%	-14%
CSCCC(NC(=O)c1ccco1)C(=O)Nc1ccc(C)cn1 (stereo not drawn)	-4%	4%
CCOC(=O)c1ccc(NC(=O)C2CCCN(S(=O)(=O)c3cnc[nH]3)C2)cc1 (stereo not drawn)	-1%	-5%

# Screens from PubChem.

# Only part of the results is shown, and most or all hits are left out here.
